# Screens deposited in PubChem by several laboratories.
# Mtb hypoxia rep: inhibitors of hypoxia-regulated fluorescent reporter in Mycobacterium tuberculosis | M. tuberculosis hypoxia-regulated fluorescent reporter, fluorescence | fluorescence inhibition, % (test concentration not listed) | hit rate 0.1% among 300,000;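 active means 35 to 45% if threefold the growth effect, above 45% if 1.5-fold the growth effect; inactive means the rest, general growth blockers included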;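 further: wells of about 50 µL received 100 nL stock; 0% = vehicle wells and 100% = reference inhibitor wells; whole bacteria with a GFP reporter of the hypoxia response; strong numbers were not always called active; many hits fall short of the cut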
# BJeLR lethal: kills HRASV12-expressing BJeLR cells; BJeLR (HRASV12) viability, CellTiter-Glo ATP luminescence, 48 h; reference of the scale not given here; inhibition, % (test concentration not listed); hit rate 0.17% among 300,000;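 active means replicate mean above 50%; inconclusive means above 50% but judged a plate artefact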;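 further: 50 nL library stock added to about 25 µL; numbers are from one replicate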
# Sa RN4220 lethal: kills Staphylococcus aureus RN4220. S. aureus RN4220 growth, OD600, 16 h. inhibition, % (concentration not given with the values). hit rate 0.33% among 330,000;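 active means z-score of -3 or lower and OD600 up to 0.18 on both plates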;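 further: plate controls were untreated cells for no effect and reference antibiotic for full effect; stock transfer was 100 nL into about 80 µL; one replicate is shown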
# ugtP null kill: growth inhibition of S. aureus ugtP deletion strain. hit rate 0.54% among 330,000. growth inhibition, % (no concentration beside the values). AID 1259309. S. aureus RN4220 ugtP deletion, OD600 growth, 16 h; some inactives read as strong as hits;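 active means z-score under -3 and OD600 up to 0.15 on both plates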;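 further: plate controls were untreated wells for no effect and antibiotic for full effect; wells of about 80 µL received 100 nL stock; the first replicate is given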
# Bead autofluor: flagged as autofluorescent in microsphere protease counterscreen. compound autofluorescence counterscreen, microsphere flow cytometry; stronger effect = higher value. fluorescence intensity (concentration not given with the values). hit rate 3.1% among 360,000. AID 624483;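 active means at least 3 SD above the mean of all compounds, about 16000 in these data; inconclusive means too few beads counted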;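 further: 100 nL of 1 mM stock went into each well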
# PrP UTR inh: suppresses PrP 5' UTR mRNA reporter expression. cell-based PrP 5' UTR mRNA reporter, plate reader. inhibition, % (no concentration beside the values). hit rate 0.35% among 340,000. AID 488862;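 active means every replicate at 50% or more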;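 further: 0 = median of the neutral control wells; tested in H4 reporter cells; numbers are from one replicate; inactives centre near -14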
# Mtb hypoxia rep growth: recorded beside Mtb hypoxia rep, whose call it bears; growth inhibition, %; measured here: M. tuberculosis growth (absorbance);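 0% = vehicle and 100% = reference antibiotic; read after six days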
# * hit, by the source's call; ? = inconclusive; . = not tested or not shown; & = joins results of further samples.
mol,Mtb hypoxia rep,Mtb hypoxia rep growth,BJeLR lethal,Sa RN4220 lethal,ugtP null kill,Bead autofluor,PrP UTR inh
Cc1ccc(Cl)cc1NC(=S)NN,1,0,5,0.6,13,5903,-18
c1ccc2c(c1)cnc1ccccc12,16&13,14&-2,7&-5,3.9&2.5,7&2,5906&3401,-16
Cc1ccsc1CNS(=O)(=O)c1ccc(F)cc1,5,-2,-6,2.9,-1,5431,-2
O=C(NCc1ccc(F)cc1)C(c1ccco1)N(C(=O)c1csnn1)c1ccccc1 (configuration not stated),-10,9,-4,-1.8,-5,5409,-6
CCOC(=O)c1sc(NC(=O)CCN2CCCCCC2)c(C(=O)OCC)c1C,-2,8,2,0.7,6,2265,-11
O=C(c1ccc(Cn2c(=O)[nH]c3ccccc3c2=O)cc1)N1CCN(c2ccc(F)cc2)CC1,3,17,-5,6.5,1,7902,-13
COc1cccc(NC(=O)COC(=O)c2nc(Cl)ccc2Cl)c1,3,4,-3,2.9,3,4308,2
CCO[C@@H]1OC(C(=O)N2CCN(Cc3ccccc3)CC2)=C[C@H](c2csc3ccccc23)[C@H]1CCCO,.,.,1,.,.,3924,5
Cc1nc(SCc2ccccc2)c2oc3ccccc3c2n1,.,.,2,6.3,-7,3836,-17
O=S(=O)(c1cnc(Cl)c(Br)c1)N1CCN(c2ncccn2)CC1,2,0,12,1.3,12,4164,-6
O=C(ON=C(c1ccccc1)c1ccccn1)c1ccc(Cl)c(Cl)c1,4,1,.,2.4,2,.,.
COc1cccc(CN(C)CC2CCCN(CCc3ccccc3C)C2)c1 (configuration not stated),4,-4,0,1.4,5,.,10
O=C(NC(=S)NCc1ccc(Cl)cc1)c1ccco1,7,4,.,-0.8,-10,3040,0
COc1ccc(-n2nc(C)c3sc(C)nc3c2=O)cc1,10,7,-3,0.5,3,3695,-7
O=C(NCc1ccccc1)C(c1ccco1)N(C(=O)c1ccccn1)c1ccc(F)cc1 (configuration not stated),9,-8,1,5.0,10,2773,-4
Cc1ccc2c(nc3sc(=Cc4cccs4)c(=O)n32)c1C,-1,10,.,-14,-10,.,.
Cc1cc(N2CCNCC2)nc2ccccc12,.,.,-3,.,.,4128,-7
O=[N+]([O-])c1ccccc1CN1CCN(Cc2ccc3ccccc3c2)CC1,9,11,-3,-1.9,28,3115,-7
O=C(c1ccc2c3n(nc2c1)-c1ccccc1CO3)N1CCOCC1,.,.,57*,.,.,3551,-72
OC(CN1CCOCC1)C12CC3CC(CC(C3)C1)C2 (configuration not stated),4,12,1,2.0,6,4198,-16
Cc1ccc(C(=O)N/C(=C\c2ccco2)C(=O)NCCCN2CCOCC2)cc1C,4,-6,4,1.2,6,4278,-11
COc1ccc(C(C(=O)NC2CCCC2)N(C(=O)c2ccoc2C)c2ccc(C)c(C)c2)cc1 (configuration not stated),-12,-11,3,-9.8,-21,2597,-21
COc1ccc(N2CCN(C(=O)c3cccc(S(=O)(=O)N4CCCc5ccccc54)c3)CC2)cc1,7,-2,.,8.2,3,7203,-16
O=C(CSc1nnc(Cc2ccccc2)o1)Nc1ccc2c(c1)OCO2,6,4,2,-8.1,6,2457,-17
O=C(CN1C(=O)NC2(CCCCC2)C1=O)N1CCN(S(=O)(=O)c2cccc(F)c2)CC1,-5,-10,-5,4.8,11,4392,-6
Clc1ccc(OCc2nc(-c3ccccn3)no2)c(Br)c1,6,5,-5,14,9,6303,-1
CC(Cl)C(=O)c1ccc2c(c1)CCN2C(=O)C1CC1 (configuration not stated),7,12,1,-6.2,-8,3445,-1
Cc1c(NC(=O)c2ccco2)cccc1-c1nc2cccnc2s1,2,6,-3,-6.9,-2,7440,-13
Cc1ccccc1C(=O)Nc1c2c(nn1C(C)(C)C)CS(=O)(=O)C2,-9,-6,2,2.2,8,4728,-14
COc1ccc(C=CC(=O)c2ccc([N+](=O)[O-])cc2)cc1,17,14,.,5.9,-1,4059,-29
COC(=O)[C@]1(Cc2ccccc2)N[C@H](CN(C)S(=O)(=O)c2ccc(-c3ccccc3)cc2)[C@@H]2C(=O)N(Cc3ccccc3)C(=O)[C@@H]21,-16,0,.,5.0,-5,3881,-17
CCN(CC)CCOc1ncnc2c1oc1ccccc12,8,10,7,1.2,0,19366*,-50
Cc1nc(C)c(C(=O)Nc2cccc(C)c2C)o1,-1,5,4,-0.5,5,6122,-14
O=[N+]([O-])c1cccc(-c2ccc(C=Nn3c(-c4ccccc4)n[nH]c3=S)o2)c1,7,0,.,5.5,-7,.,.
CN(C)CC#CCC(O)(c1ccccc1)C1CCCCC1 (configuration not stated),4,2,-9,0.2,1,3799,-3
Cc1ccc(C(=O)NNC(=O)CCOc2cccc(C)c2)cc1,-4,5,.,-0.3,1,4155,3
CCN1CCN(C(=O)/C=C/c2c(F)cccc2Cl)CC1,8,4,7,6.0,8,2897,-102
Cc1ccc(-c2c(C(=O)NNC(=S)NCC3CCCO3)csc2C)cc1 (configuration not stated),-5,-4,2,4.7,6,4396,-20
CCOc1ccc(NC(=O)CSc2nnc(Cn3c(=O)sc4ccccc43)n2C)cc1,.,.,.,2.4,5,6081,-16
Cc1ccc(S(=O)(=O)Oc2ccc(C=N/N=C3/NC(=O)C(CC(=O)O)S3)cc2)cc1 (configuration not stated),1,14,.,1.1,-6,.,.
O=C(Nc1nccs1)NC1CCCCC1,14,3,-7,3.8,-5,10313,-15
CCN(Cc1ccccc1)Cc1cccc([N+](=O)[O-])c1,18,13,3,11,8,10649,-22
COc1ccc2c(c1)c(CC(=O)Nc1ccc(C)cc1)c(C)n2C(=O)c1ccc(Cl)cc1,18,2,-1,-26,-3,3279,-13
Cc1c(Cl)c([N+](=O)[O-])nn1Cc1ccc(C(=O)Nc2ccc(Cl)cn2)o1,4,1,-12,6.4,-4,2431,9
O=C(NCc1ccc(F)cc1)C(c1ccccc1)N(CC1CCCO1)C(=O)Cn1nnc2ccccc21 (configuration not stated),4,1,-12,5.6,-2,4162,-18
COC(=O)c1c(-c2ccc(N(C)C)cc2)sc2ccc(OC)cc12,1,9,.,4.5,8,3365,-45
O=C1CCCCCN1Cc1nnc(SCc2nc3ccccc3s2)n1-c1ccccn1,2,4,-10,3.7,3,8936,-28
CN(c1ccc(F)cc1)S(=O)(=O)c1ccc(Cl)c(C(=O)Nc2ccncc2)c1,1,-2,5,2.1,1,6748,-1
CCOc1ccc(C=Nn2c(COc3ccccc3)n[nH]c2=S)cc1OC,2,-4,.,4.0,4,.,.
CCC(COC(=O)Nc1cccc(C)c1C)NC(=O)OCC(C)C (configuration not stated),1,-1,7,0.8,9,7686,.
COc1ccccc1NS(=O)(=O)c1cccc(C(=O)NN=Cc2cn(-c3ccccc3)nc2-c2ccccc2)c1,4,6,.,-7.3,-12,.,.
CS(=O)(=O)Nc1ccc(-c2cc(/C=C3\SC(N)=NC3=O)c[nH]c2=O)cc1,.,.,1,.,.,2994,7
CN(CC(=O)Nc1c(Cl)cccc1Cl)C(=O)Cn1[nH]c(=O)c2ccccc2c1=O,-2,-1,.,1.7,1,8762,-13
CCn1nnnc1NCc1cccn1C,-3,-9,-2,-2.7,-13,5846,-16
CC(NC(=O)COc1cccnc1[N+](=O)[O-])c1ccc(F)cc1 (configuration not stated),4,16,-3,1.8,7,5665,-4
COC(=O)c1cccc(NC(=O)CCNC(=O)c2ccco2)c1,-9,-1,-2,0.6,1,4935,-22
Cc1ccc(SCc2nnc(N)s2)cc1,8,4,9,-17,-9,2856,-40
COc1ccc(NS(=O)(=O)c2cc3c4c(c2)CCN4C(=O)CC3)c(OC)c1,-1,3,3,1.0,-1,5648,-10
Cc1cccc2[nH]c(SCC(=O)N3CCOCC3)nc12,-4,-1,6,2.0,3,2467,-19
Oc1ccc(C=NNc2nccnc2Cl)cc1,2,6,.,0.7,-3,.,.

# (list continues)
mol,Mtb hypoxia rep,Mtb hypoxia rep growth,BJeLR lethal,Sa RN4220 lethal,ugtP null kill,Bead autofluor,PrP UTR inh
CC(=O)c1ccccc1NC(=O)COC(=O)c1ccccc1NC(=O)c1ccccc1,9,3,.,3.8,-1,2109,-19
COc1ccc(CCNC(=O)C(=O)NCC2OCCN2S(=O)(=O)c2ccc(OC)cc2)cc1 (configuration not stated),-4,10,-12,-11,-10,5979,-28
CC(C)(C)S(=O)(=O)c1cnc2c(-c3ccc(Cl)cc3)cnn2c1N,4,8,-1,8.1,1,5860,-56
CCc1cccc(CC)c1NC(=O)c1ccccc1,14,6,13,3.8,13,2612,-24
O=C(NCC1CCCO1)c1ccc(CS(=O)(=O)Cc2ccc(F)cc2)o1 (configuration not stated),3,0,1,1.6,9,2456,3
C#CCOCCOCCOCCNc1nc(N2CCN(C(=O)Cn3cc(CC(C)O)nn3)CC2)nc(N2CCN(C(=O)C(CCCCN)n3cc(CCCC)nn3)CC2)n1 (configuration not stated),-4,1,.,4.3,-2,.,.
CCN1CCN(C(c2ccc(OC)c(OC)c2)c2nnnn2C(C)(C)C)CC1 (configuration not stated),.,.,7,-1.0,-1,4357,-8
CC(=O)c1ccc(S(=O)(=O)Nc2ccc(N3CCOCC3)cc2)cc1,3,-2,-14,2.9,8,3509,-11
O=C(NC(Cc1ccccc1)C(=O)OCc1ccccc1)c1nc[nH]c1C(=O)NC(Cc1ccccc1)C(=O)OCc1ccccc1 (configuration not stated),7,7,.,3.0,-13,.,.
CCCCSc1nc(N)c(NC(=O)c2ccco2)c(=O)[nH]1,2,2,11,-5.5,-3,5888,-18
Cc1c(NC(=O)c2cccc(NC(=O)COc3cccc(Br)c3)c2)c(=O)n(-c2ccccc2)n1C,5,9,.,1.9,5,3851,-7
COc1ccc(NC(=O)COC(=O)CCCN2C(=O)c3ccccc3C2=O)cc1Cl,-1,10,-8,-2.6,-3,9160,-22
Cc1ccc(C2(C)NC(=O)N(CC(=O)NCCN3C(=O)S/C(=C\c4cccnc4)C3=O)C2=O)cc1 (configuration not stated),-1,-1,.,0.6,2,8644,0
CC1CCCCC1NC(=O)Cn1c(CN2CCCCC2)nc2ccccc2c1=O (configuration not stated),-3,-10,4,0.0,-7,6847,-12
COC(C(=O)N/N=C(\C)CC(=O)Nc1ccc(Cl)cc1C)c1ccccc1 (configuration not stated),.,.,-5,.,.,4019,-22
CCc1c(C)sc(NC(=O)c2ccco2)c1C(=O)N1CCOCC1,-1,-1,3,3.5,8,7749,-23
CC(=O)Nc1ccc(NC(=O)COc2cc(C)cc3oc(=O)cc(C)c23)cc1,-4,0,9,3.3,9,5647,-3
COc1ccc(C2C(CC(=O)O)=C(Nc3ccccc3)C(=O)N2c2ccccc2)cc1 (configuration not stated),0,2,-9,-0.1,10,2581,-34
CCOc1ccc(CCNC(=O)C2CC(=O)N(Cc3ccc(C)cc3)C2)cc1OCC (configuration not stated),2,1,-9,4.3,9,5201,-12
Cc1ccc(NC(=O)CSc2nnc(CCC(=O)O)c(=O)[nH]2)cc1,12,13,-10,4.4,5,4463,11
CNS(=O)(=O)c1ccc2c(c1)NC(=O)C1CCCN21 (configuration not stated),-6,4,-10,5.4,4,2044,-4
CC(C)(C)c1nnc(N/N=C/c2ccccc2)n(N)c1=O,.,.,3,.,.,1951,-71
O=C(c1cc(-c2ccc(Br)cc2)on1)N1CCCC1,23,19,-1,7.0,3,6111,-121
C/C(=N\NC(=O)C1(C)CC1(Br)Br)c1cccc(NC(=O)c2ccc(C)o2)c1 (configuration not stated),.,.,2,.,.,5698,-7
O=C(NCCO)/C(=C\c1ccco1)NC(=O)c1ccco1,-11,-3,8,3.1,4,3015,4
Cc1nc2ccccc2n1CC(=O)NN=Cc1ccccn1,-2,-1,.,3.0,2,.,.
Cc1nn(-c2ccccc2)c2sc(C(=O)N3CCOCC3)cc12,3,11,3,3.7,0,?,-30
